Compound activity (PubChem)
Mtb betalactam: beta-lactam sensitization of Mtb H37Rv; M. tuberculosis H37Rv growth with meropenem, percent inhibition; hits of this screen are not shown here; inhibition, % at 25 µM; actives 0.27% (n = 330,000); AID 434955;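 active = about 74% or more and at least 40 points above the plate without the antibiotic, then above 30% in a dose series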;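 also: growth measured after seven days incubation then overnight dye step; 0% = bacteria only wells and 100% = bacteria with antibiotic; twin plates without the antibiotic show which effects depend on it; some results filed as inactive read as strong as hits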
RecA splice inh: blocks M. tuberculosis RecA intein splicing. cell-free RecA intein splicing, fluorescence. inhibition, %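 (about 9 µM by stock and volumes)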. actives 0.75% (n = 290,000). AID 2221; in the data active = inhibition above about 30%;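 also: 0% = vehicle wells and 100% = reference inhibitor control wells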
Target sequence (P9WHJ3 whole entry, looked up, canonical isoform): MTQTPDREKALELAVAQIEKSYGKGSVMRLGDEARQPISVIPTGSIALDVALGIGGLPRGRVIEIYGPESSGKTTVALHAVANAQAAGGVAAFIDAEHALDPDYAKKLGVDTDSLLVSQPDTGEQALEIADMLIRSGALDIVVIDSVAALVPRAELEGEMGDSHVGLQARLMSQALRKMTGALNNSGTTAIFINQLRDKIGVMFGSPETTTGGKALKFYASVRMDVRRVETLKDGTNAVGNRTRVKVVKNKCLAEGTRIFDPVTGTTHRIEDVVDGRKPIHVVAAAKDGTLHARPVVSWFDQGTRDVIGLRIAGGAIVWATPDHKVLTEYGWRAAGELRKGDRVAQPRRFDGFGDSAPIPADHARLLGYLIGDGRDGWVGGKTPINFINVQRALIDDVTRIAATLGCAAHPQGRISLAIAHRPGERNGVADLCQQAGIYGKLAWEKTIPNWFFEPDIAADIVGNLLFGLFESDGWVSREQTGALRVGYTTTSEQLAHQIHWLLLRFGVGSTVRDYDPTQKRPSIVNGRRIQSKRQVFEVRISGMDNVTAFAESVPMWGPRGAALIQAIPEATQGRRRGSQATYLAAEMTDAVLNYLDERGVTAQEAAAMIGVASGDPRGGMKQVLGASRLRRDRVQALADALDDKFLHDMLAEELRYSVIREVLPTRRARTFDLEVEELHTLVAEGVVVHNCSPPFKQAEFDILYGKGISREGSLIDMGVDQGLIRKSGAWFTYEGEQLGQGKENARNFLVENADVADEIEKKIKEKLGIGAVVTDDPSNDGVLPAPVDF
Arbovirus anti: blocks arbovirus infection; actives 0.37% (n = 200,000); arbovirus infection cell-based antiviral screen; AID 1251; inhibition, % at 10 µM;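 active = inhibition from about 30%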;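 also: bluetongue infection of BSR cells; cell survival read as ATP light after 72 h; 0% = infected wells without compound and 100% = uninfected wells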
YopH PTP inh: inhibitors of Yersinia enterocolitica YopH tyrosine phosphatase | fluorescence Ex485/Em525 | inhibition, %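 (about 10 µM by stock and volumes)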 | actives 0.16% (n = 140,000) | AID 898;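 active = inhibition of 50% or more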;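 also: controls were vehicle for no effect and minimum signal wells for full effect; inactives centre near -20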
Mtb growth: M. tuberculosis H37Rv growth inhibitors, H37Rv strain (AID 1626); M. tuberculosis H37Rv growth inhibition; higher % means a stronger effect; inhibition, % at 10 µM, or IC50 in µM where a hit was titrated; actives 0.95% (n = 220,000);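 active = confirmed in a dose series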;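 also: bacteria incubated seven days before Alamar blue readout; 0% = bacteria only wells and 100% = bacteria with antibiotic wells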
Arbovirus anti repeat: recorded beside Arbovirus anti, whose call it bears; inhibition, %; measured here: 10K subset replicate screen; many hits read low in the repeat;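 first of two repeat runs on a subset; 0% = infected and 100% = uninfected wells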
An asterisk follows results filed as active; . = no result given.

SMILES	Mtb betalactam	RecA splice inh	Arbovirus anti	YopH PTP inh	Mtb growth	others
O=C(O)c1ccccc1C(=O)NC1CCCc2ccccc21 (configuration not stated)	-2	-0.2	.	.	.
O=S(=O)(NC1CCCCC1Oc1ccccc1)c1ccc(Cl)cc1 (configuration not stated)	2	8.6	-8	-10	6%
COc1ccc(-c2ccc3oc(-c4ccsc4)cc3c2)cc1	10	2.5	.	.	-3%
CC1CC(C)(C)NC(=S)N1CCC(=O)NCCc1ccc(Cl)cc1 (configuration not stated)	-1	.	2	.	5%
Cc1ccc(-c2nn(CCC(=O)NC(C)C)c(=O)c3ccccc23)cc1	3	1.1	.	.	.
O=C(N/N=C/c1ccco1)c1cc(C2CC2)[nH]n1	-8	-2.4	.	.	-11%
O=C(NCc1csc(-c2cccs2)n1)Nc1cccc(Cl)c1	1	-0.6	.	.	-4%
CCc1noc(C)c1C(=O)NNC(=O)COc1ccc(C)c(C)c1	-1	-0.5	.	.	.
COc1cc(NC(=O)c2ccco2)ccc1NC(=O)C(C)C	-3	-2.1	-10	-9	-4%
COC(=O)C(NC(=O)c1cccnc1Cl)C(C)C (configuration not stated)	-2	2.2	.	.	-9%
C#CC(C)(C)NC(=S)NC1CC2C=CC1C2 (configuration not stated)	-6	4.8	.	.	4%
Cc1cc(C)c(-c2cc(NC(=O)CSc3n[nH]c(N)n3)n(-c3ccccc3)n2)cc1C	21	.	-22	-11	5%
CCOC(=O)N1CCC2(CC1)C(C#N)=C(N)Oc1n[nH]c(CSc3ccc(C)cc3)c12	-2	51*	-2	-29	5%
COc1ccccc1C(=O)NCCCN1CCCC1=O	-4	-4.3	3	3	3%
CC1CN(C(=O)c2ccccc2NS(=O)(=O)c2cccc([N+](=O)[O-])c2)CC(C)O1 (configuration not stated)	-5	-1.9	-3	-18	1%
Clc1nc(CN2CCCCC2)nc2sc3c(c12)CCC3	9	-0.5	9	.	4%
O=C(Nc1ccnn1C1CCN(C(=O)Cc2cccc(Cl)c2)CC1)C1CC1	-4	-0.4	.	.	.
OCCC1CN(Cc2ccc(C(F)(F)F)cc2)CCN1Cc1ccccc1 (configuration not stated)	2	-4.6	-6	.	-3%
Cc1cccc(NC(=O)CN2C(=O)CCS(=O)(=O)c3ccccc32)c1C	4	1.8	.	.	.
Oc1ccc2ccccc2c1CNc1ccc(Br)cn1	5	7.9	.	.	.
CCOC(=O)CC1=C(C(=O)OCC)C(c2ccc(C)o2)C(C#N)=C(N)O1 (configuration not stated)	-12	5.3	2	-12	1%
O=C(O)c1ccc(CSc2nnc(-c3ccncc3)n2-c2ccc(Br)cc2)cc1	-5	1.6	2	.	-6%
CC(C)c1ccc(N(CC(=O)N2CCOCC2)S(C)(=O)=O)cc1	-7	-0.1	.	.	.
Cc1cc(C(=O)CSc2nnc(-c3ccc(F)cc3)o2)c(C)n1CC1CCCO1 (configuration not stated)	-2	1.6	16	-24	4%
Cc1ccc(C)c(NC(=O)CCC(=O)N/N=C/c2ccc3c(c2)OCO3)c1	-2	-0.9	-8	.	-5%
CCn1ncc(NC(=S)NCCc2ccccc2)c1C(N)=O	1	-2.1	-5	.	-4%
O=C(N/C(=C/c1ccccc1)C(=O)N1CCCCC1)c1ccco1	-4	-3.8	.	.	.
O=C(CCCn1c(=O)c2sccc2n(CC(=O)OCc2ccccc2)c1=O)NCc1ccco1	-8	1.6	5	-29	-7%
O=C(CSc1nc2cc(Cl)ccc2o1)Nc1ccc(N2CCOCC2)cc1	-1	-0.9	-2	7	12%
COc1ccccc1-c1c(C#N)c(SCC(=O)N2CCCC2)nc(C)c1C(N)=O	.	-4.5	13	-27	-10%	Arbovirus anti repeat=4
C/C(Cc1ccccc1)=N/NC(=O)CCCC(=O)N/N=C(/C)Cc1ccccc1	-5	0.1	0	.	-5%
Nc1c(C(=O)Nc2ccc(Cl)c(C(=O)O)c2)sc2nc3c(cc12)CCCC3	4	-32	.	.	.
Cc1cccc(Oc2coc3cc(OC(=O)c4cccs4)ccc3c2=O)c1	1	-7.0	-4	-21	0%
COc1ccc(NC(=O)Nc2ccc(C(=O)N3CCOCC3)cc2)c(OC)c1	2	6.1	4	.	7%
NC(=O)c1cc(S(=O)(=O)N2CCc3ccccc3C2)cs1	-2	3.6	.	.	.
O=C(CN(C(=O)c1csnn1)c1ccc(F)cc1)NCc1ccc2c(c1)OCO2	-3	3.3	.	.	.
O=S(=O)(c1cccs1)N1CCN(CC(O)COC2CCCc3ccccc32)CC1 (configuration not stated)	-7	-1.4	6	-48	.
Cc1noc(C(=O)N2CC3(C)CC2CC(C)(C)C3)c1Cl (configuration not stated)	0	-0.5	-5	.	4%	Arbovirus anti repeat=-3
CC(=O)c1ccc(NC(=O)C2=CC(c3ccco3)=NS(=O)(=O)N2C)cc1	0	-2.1	.	.	.
COc1ccc(OC)c(C(=O)CSc2nnc(Cc3cccs3)n2C)c1	-4	.	8	-3	0%

Retrieved by structure from above:
SMILES	Mtb betalactam	RecA splice inh	Arbovirus anti	YopH PTP inh	Mtb growth	others
O=C(CSc1nc2cc(Cl)ccc2o1)Nc1ccc(N2CCOCC2)cc1	-1	-0.9	-2	7	12%
O=C(O)c1ccc(CSc2nnc(-c3ccncc3)n2-c2ccc(Br)cc2)cc1	-5	1.6	2	.	-6%
COc1ccc(NC(=O)Nc2ccc(C(=O)N3CCOCC3)cc2)c(OC)c1	2	6.1	4	.	7%

Structures shown so far containing a COOH group:
SMILES	Mtb betalactam	RecA splice inh	Arbovirus anti	YopH PTP inh	Mtb growth	others
O=C(O)c1ccccc1C(=O)NC1CCCc2ccccc21 (configuration not stated)	-2	-0.2	.	.	.
O=C(O)c1ccc(CSc2nnc(-c3ccncc3)n2-c2ccc(Br)cc2)cc1	-5	1.6	2	.	-6%
Nc1c(C(=O)Nc2ccc(Cl)c(C(=O)O)c2)sc2nc3c(cc12)CCCC3	4	-32	.	.	.

Additional compounds
SMILES	Mtb betalactam	RecA splice inh	Arbovirus anti	YopH PTP inh	Mtb growth	others
O=C(CCCCCN1C(=O)c2cccc3cccc(c23)C1=O)NCCO	7	-14	2	.	0%
O=C(c1ccoc1)N1CCCC(CO)(CCCc2ccccc2)C1 (configuration not stated)	-3	2.3	.	.	.
Cc1ccc(-n2c(SCC(=O)NCc3ccco3)nc3c([nH]c4ccccc43)c2=O)cc1	-3	-1.6	0	.	.
COC(=O)[C@@H]1[C@H](CCc2ccccc2)NC(=O)N(Cc2ccccc2)[C@@H]1C	-4	2.5	.	.	-3%
O=[N+]([O-])c1ccc(Cl)cc1NCC1CCCO1 (configuration not stated)	0	3.1	.	.	.
Cn1c(C(=O)Nc2ccc3c(c2)OCCO3)cc2sccc21	44	4.8	-5	-42	-5%
CCCNC(=S)N1CCN(c2nc(-c3ccc(C)cc3)cs2)CC1	3	1.1	.	.	.
COc1ccc(Cc2nnc(NC(=O)Cn3cnc4c3c(=O)n(C)c(=O)n4C)s2)cc1OC	1	-3.1	8	-8	-13%
CC(C(=O)N1c2ccccc2CCc2ccccc21)n1nnc(-c2ccc(N(C)C)cc2)n1 (configuration not stated)	-5	5.0	-20	14	9%
O=C(Cn1nnc(-c2ccccc2)n1)N/N=C/c1cccc([N+](=O)[O-])c1	0	0.1	-6	-15	-1%
O=C(CCC1CCCC1)NC1CCCCC1	3	0.5	1	-7	10%
COC(=O)C1C(=O)C2=C(CC1C)NC(=O)CC2c1ccc(F)cc1 (configuration not stated)	-4	-0.7	-5	.	-5%
Cc1ccc(C(=O)NNC(=O)C(C)Oc2ccc3ccccc3c2)o1 (configuration not stated)	0	-3.3	.	.	.
CCCN1Cc2cccc(C(=O)Nc3ccc(C)cc3)c2C1=O	-3	-3.2	0	-28	4%
COc1ccc(CC(=O)Nc2ccc(-c3cn4cccc(C)c4n3)cc2)cc1OC	5	-0.1	7	-6	-4%
COc1cccc(C(C(=O)Nc2ccc(F)cc2)N(C(=O)Cn2nnc3ccccc32)C2CC2)c1 (configuration not stated)	0	1.4	-13	-29	-2%
COc1cccc(/C=N/NC(=O)C[n+]2ccccc2)c1O	1	-3.4	-8	-20	-7%
CCNC(=O)c1cc2ccccc2o1	-5	-2.1	-4	-26	-4%
O=C(CCC(=O)c1ccc(Oc2ccccc2)cc1)Nc1ccc(Cl)cc1Cl	3	-3.8	-3	-21	-1%
CCCN1CCC(=O)N(CCSc2ccc(NC(C)=O)cc2)CC1	1	-0.5	.	.	-8%

Structural class, the compounds so far containing a cyano group.
SMILES	Mtb betalactam	RecA splice inh	Arbovirus anti	YopH PTP inh	Mtb growth	others
CCOC(=O)N1CCC2(CC1)C(C#N)=C(N)Oc1n[nH]c(CSc3ccc(C)cc3)c12	-2	51*	-2	-29	5%
CCOC(=O)CC1=C(C(=O)OCC)C(c2ccc(C)o2)C(C#N)=C(N)O1 (configuration not stated)	-12	5.3	2	-12	1%
COc1ccccc1-c1c(C#N)c(SCC(=O)N2CCCC2)nc(C)c1C(N)=O	.	-4.5	13	-27	-10%	Arbovirus anti repeat=4

(further entries)
SMILES	Mtb betalactam	RecA splice inh	Arbovirus anti	YopH PTP inh	Mtb growth	others
COc1ccccc1CCNC(=O)C(=O)NCC1OCCCN1S(=O)(=O)c1cc(C)ccc1C (configuration not stated)	-4	2.5	.	.	.
Cc1ccc(C)c(S(=O)(=O)N2CCC3(CC2)OCCO3)c1	4	3.2	.	.	.
O=S(=O)(c1cccs1)N1CN(Cc2ccc(F)cc2)c2nc3ccccc3nc21	-9	.	-2	-14	-10%
COc1ccc(-c2nc3c([nH]2)c(=O)n(C)c(=O)n3C)c(OC)c1	-10	-9.1	0	-36	-7%
COc1ccccc1N1C(=O)CCC1(C#N)c1ccc(Br)cc1 (configuration not stated)	-15	3.1	-3	-18	-5%
C[C@@H]1C=CC(=O)O[C@@H]1c1ccc(C(F)(F)F)cc1	4	-0.4	.	.	.
COc1ccc(C(=O)CN2CC(C)SC2=Nc2ccc(Cl)cc2)cc1 (configuration not stated)	15	9.6	-4	-15	8%
COc1ccc(Cl)c2c1[nH]c1nc(SCc3ccccn3)nnc12	-1	3.7	1	.	4%
CC(=O)Nc1ccc(S(=O)(=O)NC2=NCN(C)CN2)cc1	7	-5.4	14	.	3%
COc1cc(/C=N/NC(N)=O)ccc1OCC(=O)Nc1cc(C)c(C)cc1Br	-1	-4.9	3	.	-1%
CCOC(=O)CSc1nnc(CNC(=O)c2cccs2)n1-c1cc(C)ccc1C	4	.	3	-14	-3%
COC(=O)c1sc2ccccc2c1NC(=O)c1coc2ccccc2c1=O	6	2.8	10	-20	6%
Cc1ccc(NC(=O)CCNC(=O)c2ccc(Br)cc2)cc1S(=O)(=O)N1CCOCC1	-11	0.2	.	.	.
Cn1c(C(=O)NN)cc2cc(OCc3ccccc3)ccc21	5	2.7	.	.	.
O=S(=O)(c1ccc(Cl)cc1)c1nc(-c2ccco2)oc1N1CCCCC1	1	9.9	.	.	.
O=C(/C=C/c1ccccc1)Nc1ccc(S(=O)(=O)N2CCOCC2)cc1	-11	-14	.	.	.
CS(=O)(=O)c1ccccc1COC(=O)Nc1ccc(Cl)cc1	8	.	-4	-17	1%
O=C(CSc1nc2ccc([N+](=O)[O-])cc2s1)NC1CCS(=O)(=O)C1 (configuration not stated)	-8	2.6	8	.	2%
Nc1nonc1-c1noc(CCCCCN2C(=O)c3ccccc3C2=O)n1	0	.	8	18	11%
CCCC(=O)c1cc2c(cc1NC(=O)c1cccs1)OCCO2	7	.	15	-2	-6%
CCOc1ccc(CCNC(=O)CN2C(=O)NC3(CCCCC3)C2=O)cc1OCC	-11	0.5	.	.	.
O=C1CCC([N+](=O)[O-])C(c2ccccc2Br)N1 (configuration not stated)	-2	-0.7	.	.	.
CCN1CCN(CCCNC(=O)c2ccccc2NC(=O)C2=C(C)OCCS2)CC1	-3	-1.4	.	.	.
COc1ccc(-n2nc(C(=O)NCC(=O)N3CCN(Cc4ccccc4)CC3)c3ccccc3c2=O)cc1OC	10	2.1	.	.	.
CN(C)S(=O)(=O)c1cccc(NC(=O)COC(=O)CCSc2ccc(Cl)cc2)c1	1	5.6	-13	-15	-3%
O=C(CN1CCN(S(=O)(=O)c2ccc(Br)cc2)CC1)N/N=C/c1cccs1	3	2.2	-2	-25	.
Cc1nc(C(C)NC(=O)c2cc(COc3ccc(F)c(F)c3)on2)cs1 (configuration not stated)	6	0.6	.	.	.
CCOc1ccccc1OCC(=O)Nc1ccc(OC)c(S(=O)(=O)N2CCCCC2)c1	-6	3.4	.	.	.
Cc1ccc(NC(=O)CCOc2ccccc2C)cc1F	-5	4.6	-2	.	-4%
COC(=O)c1c(NC(=O)c2cccs2)sc2c1CCC(C)C2 (configuration not stated)	11	-16	16	-35	-10%
CCn1c(=O)c(C(=O)Nc2ncccc2O)c(O)c2ccccc21	-3	-4.3	.	.	.
COc1ccc(Cl)cc1NC(=O)C(C)Sc1n[nH]c(N)n1 (configuration not stated)	-6	2.6	12	-19	-2%
CCOc1ccccc1OCCCCCc1c(C)n[nH]c1C	91	4.0	3	-22	1%
O=C(CS(=O)(=O)c1ccccc1)Nc1nc(-c2ccccc2)cs1	79	-0.9	0	-31	7%

An excerpt. The share of hits here may be higher or lower than overall.
